Screening data (PubChem)
HIV Env fusion: inhibitors of HIV-1 Env-driven cell-cell fusion, primary screen, HeLa-JRFL effector, CEM21 target cells, luciferase | inhibition, % at 12.3 µM | 360,000 tested, 1.1% active | AID 651610, 2012;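 active = mean replicate inhibition score of at least 50 and every replicate individually at or above 50; inconclusive = only one of the two criteria met; inactive = mean below 50 and not all replicates reaching 50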;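 also: 0% = plate neutral controls and 100% = maraviroc near 300 nM; one replicate is shown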
MT1-MMP act inh: blockers of MT1-MMP proenzyme processing, primary screen, HT1080 RFP-PRO-GFP cells, GFP/RFP fluorescence. 360,000 tested, 0.061% active. AID 651647, 2012. GFP/RFP ratio fluorescence, overnight; percent of plate control window, DMSO zero. GFP/RFP ratio change, % at 20 µM;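 active = GFP/RFP ratio change of at least 30% with cell ATP level not reduced by more than half and red fluorescence within 50% of control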; also: strong numbers were not always called active
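Test system: HT1080 RFP-PRO-GFP cells; Benchmarks: DMSO and RFP-L50D-GFP cell wells; Timing: cells overnight before dosing, compound overnight, 37 °C, 5% CO2; Compound: one 20 µM compound dose with 1% DMSO; Read-out: GFP/RFP fluorescence ratio.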
MT1-MMP act inh RFP: second read-out of MT1-MMP act inh, no call of its own (marks repeat the call); RFP signal change, %; measured here: RFP expression control read;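 0 = vehicle wells; hits needed this value within 50% of zero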
Active calls of the source: *; i = inactive; ? = inconclusive. A portion of the library. The share of hits here may be higher or lower than overall.

SMILES	HIV Env fusion	MT1-MMP act inh	MT1-MMP act inh RFP
Cc1cccc(C)c1NC(=O)C1(C)CN(S(C)(=O)=O)CC(=O)N1CC(F)(F)F (stereo not drawn)	-18	5	4
COc1ccc(OC)c(CN2C(=O)c3ccccc3C2c2nnnn2Cc2ccccc2)c1 (stereo not drawn)	11	0	1
COc1cc(C(=O)NCCc2ccc3c(c2)OCO3)cc(OC)c1OC	-49	5	-1
COc1cc2c(cc1OC)C(c1ccccc1)N(Cc1ccc(S(=O)(=O)NC(=O)c3ccco3)cc1)CC2 (stereo not drawn)	9	-2	2
COC(=O)[C@]12CCCCC=C1N(Cc1ccc(Cl)cc1Cl)C(=O)[C@H](CC(=O)NCCCN1CCCC1=O)C2	-20	1	2
COC(=O)[C@@]1(Cc2ccc(F)cc2)[C@H]2c3cc(C(=O)N4CCCC4)n(CCF)c3C[C@H]2CN1C(=O)c1ccccc1	-7	-4	-13
COc1ccc(-c2sc3ccccc3c2-c2cc(OC)ccc2C=O)cc1	-11	-4	-5
O=C(CN1CCN(S(=O)(=O)c2ccc(F)cc2)CC1)Nc1ccccc1C(=O)NC1CC1	-3	0	-1
O=C(O)C1CC2CCC1CC2 (stereo not drawn)	-10	0	7
O=C(c1ccc(C(F)(F)F)cc1)N1CCC(=O)N([C@H](COCc2ccc(C(F)(F)F)cc2)Cc2ccccc2)CC1	-7	-7	-16
Cc1ccc(C(=O)NCCN2CCC(n3c(=O)[nH]c4ccccc43)CC2)cc1C	-3	5	-4
CCOC(=O)C(=C1Nc2ccccc2N1)n1c(-c2cccnc2)nc2ccccc21	-19	3	3
Cc1ccc(CNC(=O)CN2C(=O)NC3(CCCC3)C2=O)cc1	-12	-4	-2
COc1cccc(C(C#N)NCCCNC(C#N)c2cccc(OC)c2OC)c1OC (stereo not drawn)	-28	-2	4
CCOC(=O)[C@]12CCCC=C1N(Cc1ccco1)C(=O)[C@H](CC(=O)NCC1CCCCC1)C2	-9	1	-5
CCOC(=O)N1CCN(C(=O)C[C@@H]2C[C@@]3(C(=O)OCC)CCCC=C3N(CCC3=CCCCC3)C2=O)CC1	29	1	2
O=C(Nc1ccccc1)C(CCCCN1C(=O)c2ccccc2C1=O)N1C(=O)c2ccccc2C1=O (stereo not drawn)	28	2	4
C#CCNC(=O)C[C@@H]1C[C@@]2(C(=O)OCC)CCCC=C2N(Cc2ccccc2)C1=O	6	5	5
CCC(c1nc2ccccc2[nH]1)n1c(-c2cnccn2)nc2ccccc21 (stereo not drawn)	-15	2	2
CCCCn1nnnc1C(c1ccccc1)N1CCN(c2ccccn2)CC1 (stereo not drawn)	-1	-1	-1
C#CCNC(=O)C[C@@H]1C[C@@]2(C(=O)OC)CCCCC=C2N(Cc2ccco2)C1=O	-7	4	6
Cc1ccc(Cc2c(-c3ccc(Cl)cc3)nc3c4ccccc4ccn23)cc1	1	5	2
COc1ccc(C=C(C(C)=O)C(=O)c2ccccc2)cc1	2	-2	-5
CCCCN1C(=O)C(CC(=O)NCCc2ccccn2)CC(C(=O)N2CCCCCC2)=C1C (stereo not drawn)	-3	7	6
CC1Cc2[nH][nH]c(=O)c2C(C2CC2)O1 (stereo not drawn)	3	2	5
CC1OC(C2CCCCC2)Cc2[nH]c(=S)[nH]c(=O)c21 (stereo not drawn)	-14	3	-2
Cc1ccc(S(=O)(=O)Nc2c(C)cc([N+](=O)[O-])cc2C)cc1	?	1	-4
O=C1C=C(Nc2cccnc2)c2ccccc2C1=O	-8	3	0
O=C(Nc1cccc2ccccc12)c1ccco1	-7	3	4
COc1ccc(CN2C(=O)C(CC(=O)NCCCN(C)C)CC(C(=O)N3CCCCCC3)=C2C)cc1 (stereo not drawn)	-2	5	-1
Cc1cc(C)c(C)c(C(=O)C(=O)c2ccccc2)c1	-5	0	2
CC(C)C1C(=O)N(Cc2cn(CCC3OCCO3)nn2)CCS(=O)(=O)N1Cc1ccc(-c2ccc(Cl)c(Cl)c2)cc1 (stereo not drawn)	4	2	-15
Nc1c(C(=O)NCC2CCCO2)c2nc3ccccc3nc2n1/N=C/c1ccncc1 (stereo not drawn)	21	0	-1
CCc1ccc(C2CC3C(CN2S(=O)(=O)c2ccc(C)cc2)[C@@H](O)C[C@@H](c2ccc(CC)cc2)N3S(=O)(=O)c2ccc(C)cc2)cc1 (stereo partly drawn)	61*	0	-4
COC(=O)c1ccc(N2C(c3cc(OC)cc(OC)c3)=Cc3ccc(-c4ccc(C(N)=O)cc4)cc3C2CC(=O)C2CC2)cc1 (stereo not drawn)	4	-8	-6
O=C(NN=CC=Cc1ccccc1)C(O)C(O)C(=O)NN=CC=Cc1ccccc1 (stereo not drawn)	-2	-17	-33
COC(=O)[C@@]1(Cc2ccc(F)cc2)[C@H]2c3cc(C(=O)N4CCCC4)n(CCc4ccc(OC)c(Br)c4)c3C[C@H]2CN1C(=O)c1ccccc1	-23	-28	-34
FC(F)(F)c1cc(Cl)c2nc(-c3ccccc3)c(Cc3cccc(Cl)c3)n2c1	9	3	0
CC(=NNC(=S)Nc1ccc(C)cc1)c1ccccn1	3	-3	-4
CN(C)CCCNC(=O)OC1CC2CC1[C@H]1CCCCN1C2=O (stereo partly drawn)	-37	0	6
O=C1NC[C@@H](CCCCN2C[C@H](Cc3ccccc3)N(CCC3CCCCC3)C(=O)C2=O)N(CC2CCCCC2)C1=O	7	6	-6
CC1(C(=O)NS(=O)(=O)c2ccc(Cl)cc2)CCN1C(=O)CC1CC1 (stereo not drawn)	-13	0	2
O=C1c2ccccc2C(c2nnnn2-c2ccc3c(c2)OCCO3)N1CCCn1ccnc1 (stereo not drawn)	3	1	8
COC(=O)[C@@]12C[C@@H](CC(=O)N3CCSCC3)C(=O)N(Cc3ccccc3)C1=CCC(C)(C)C2	13	6	3
COc1ccc(CN2C(=O)CCC2(C)c2nnnn2Cc2ccccc2)cc1 (stereo not drawn)	4	2	2
CCCCCCCCN1C(=O)[C@H](CC(=O)NCCCOCCCC)C[C@@]2(C(=O)OCC)CCCC=C12	-2	-8	-15
CC12CCC(=O)C=C1CCC1C3CC(O)C(O)(C(=O)CO)C3(C)CC(O)C12F (stereo not drawn)	i	-1	2
Nc1[nH]c(C(=O)c2ccccc2)c(-c2c(F)cccc2F)c1C(=O)c1ccc(Cl)c(Cl)c1	9	-1	-5
O=C1NC[C@H](CCCCN2C[C@H](Cc3ccc(O)cc3)N(Cc3ccccc3)C(=O)C2=O)N(CC2CCCCC2)C1=O	11	-4	1
C(=NN1CCCCCC1)c1ccc2c(c1)OCO2	-123	1	4
Carrying on.
SMILES	HIV Env fusion	MT1-MMP act inh	MT1-MMP act inh RFP
O=C1C(=Cc2ccccc2Cl)CCc2ccccc21	-5	3	-3
NC(=O)C1(Nc2ccc(-c3ccc(Br)cc3)cc2)CCCC1	10	2	-5
C#CCNC(=O)C[C@@H]1C[C@@]2(C(=O)OCC)CCCC=C2N(Cc2ccco2)C1=O	-144	3	6
CCOC(=O)c1ccc(NC(=O)Nc2nncs2)cc1	-323	18	-5
O=C1NC[C@@H](CCCCN2C[C@H](Cc3ccccc3)N(CC3CCCCC3)C(=O)C2=O)N(CC2CCCCC2)C1=O	5	9	6
CCOC(=O)[C@]12CCC=C1N(Cc1ccc(Cl)cc1Cl)C(=O)[C@H](CC(=O)NCc1cccc3ccccc13)C2	6	-4	-12
C=C1C(=O)OC2C=C(CO)CCC=C(CO)CC(OC(=O)C(C)C)C12 (stereo not drawn)	-4	3	2
O=C(NC1CCCCC1)C(c1ccccc1)n1c(=O)c(-c2cc3ccccc3[nH]2)nc2ccccc21 (stereo not drawn)	28	-10	-9
CC1(C)OC(=O)C2=C(C[C@@H](C3CC3)O[C@H]2CCc2cccc(Cl)c2)O1	-1	1	-2
CCCC[C@@H]1Cc2[nH][nH]c(=O)c2[C@H](c2cccc3ccccc23)O1	-48	1	1
CCOc1ccc(CNC(=O)CN2C(=O)CSc3ccc(S(=O)(=O)N4CCOCC4)cc32)cc1	9	-2	3
CC(C)c1nc2oc3c(N4CCNCC4)ncnc3c2c2c1CCC2	-15	-3	-1
CCN(CCO)CC1CCCC2CCCCC21 (stereo not drawn)	-16	8	3
CCCCn1nnnc1C(c1cc2ccccc2o1)N1CCN(c2ccccc2F)CC1 (stereo not drawn)	14	-7	-10
c1ccc(-c2nc3c4ccccc4ccn3c2CC2CCCCC2)cc1	12	-9	-1
CC(C)C1OC(CCc2ccccc2)Cc2[nH][nH]c(=O)c21 (stereo not drawn)	-4	2	-1
CCCC1CC(=O)NC1(C(=O)OCC)C(=O)OCC (stereo not drawn)	-2	0	-4
COC(=O)[C@@]1(Sc2ccc(C)cc2)CC(=O)N[C@@H]1c1ccccc1	-4	1	0
COc1cc(/C=C/CNC[C@H]2O[C@@H](n3cc(C)c(=O)[nH]c3=O)C[C@@H]2O)ccc1O	-28	1	10
Cc1ccc(C(=O)O)cc1S(=O)(=O)Nc1ccccc1C(=O)NC1CC1	i	-8	0
O=C(c1cc2c(c(-c3cccc(-c4ccc(F)cc4)c3)n1)[C@H](CCO)N(C(=O)c1ccc3c(c1)OCO3)C2)N1CCOCC1	10	2	-7
O=C(O)C1C2CCCCC2=C2CCCCC2C1C(=O)Nc1nccs1 (stereo not drawn)	2	-6	2
COc1ccc(Nc2c(-c3cc4ccccc4o3)nc3nc(C)cc(C)n23)cc1	16	-1	1
CCCCNC(=O)c1nc(-c2cnc(C)cn2)oc1-c1ccc(Cl)cc1	-1	-7	1
Cc1cccc(C)c1NC(=O)C(c1ccc(C#N)cc1)n1c(=O)c(-c2cc3ccccc3[nH]2)nc2ccccc21 (stereo not drawn)	75*	-18	-14
COC(=O)c1ccc(CNC(=O)c2ccc(S(=O)(=O)N3CCCCCC3)cc2)cc1	-10	0	-4
Cc1cc(N2CCN(C(C(=O)NC3CCCC3)C(C)C)CC2)c2ccccc2n1 (stereo not drawn)	-57	2	5
Cc1ccccc1NP1(=O)OCCCN1Cc1ccccc1Cl (stereo not drawn)	-30	1	-4
CC(C)OC(=O)CC(=O)CC(O)c1cccc([N+](=O)[O-])c1 (stereo not drawn)	26	6	8
COc1ccc2sc3cccc(NCCN(C)C)c3c(=O)c2c1	13	-2	7
CCN1CCC(O)(/C=C/c2ccc(C(C)C)cc2)C(C(=O)/C=C/c2ccc(C(C)C)cc2)C1 (stereo not drawn)	-18	-1	-6
COC(=O)CCC(C)C1CCC2C3CCC4CC(O)CCC4(C)C3=CC(=O)C12C (stereo not drawn)	6	2	-4
COC(=O)[C@@]12C[C@@H](CC(=O)NCCC(C)C)C(=O)N(Cc3cccc4ccccc34)C1=CCC(C)(C)C2	9	-24	-25
